# HCMV UL50-53 inh = inhibitors of HCMV UL50-UL53 nuclear egress complex interaction; HTRF UL50-UL53 interaction, normalized percent inhibition; inhibition, % (no concentration beside the values); 190,000 tested, 0.15% active; AID 1918969;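 active = both replicates at 50% or more, plus weaker picks with an unusually low signal ratio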;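 note: stock transfer was 100 nL into about 20 µL; 0% = negative control wells and 100% = wells with untagged competitor protein; inactives centre near -12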
# GIV Gai3 FP = blocks GIV peptide binding to rat Galpha-i3 | P08753 | 210,000 tested, 0.42% active | percent of control (FP), % (test concentration not listed) | Galpha-i3/FITC-GIV peptide fluorescence polarization, 90 min; active compounds read low; scaled: aluminum fluoride 0%, vehicle 100% | AID 1224905;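 active = replicate mean at 85% of control or lower, very high polarization wells dropped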;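 note: lower values mean more displacement of the GIV peptide from Galpha-i3; wells of about 15 µL received 100 nL stock; the first replicate is given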
# Target sequence (P08753 whole entry, looked up): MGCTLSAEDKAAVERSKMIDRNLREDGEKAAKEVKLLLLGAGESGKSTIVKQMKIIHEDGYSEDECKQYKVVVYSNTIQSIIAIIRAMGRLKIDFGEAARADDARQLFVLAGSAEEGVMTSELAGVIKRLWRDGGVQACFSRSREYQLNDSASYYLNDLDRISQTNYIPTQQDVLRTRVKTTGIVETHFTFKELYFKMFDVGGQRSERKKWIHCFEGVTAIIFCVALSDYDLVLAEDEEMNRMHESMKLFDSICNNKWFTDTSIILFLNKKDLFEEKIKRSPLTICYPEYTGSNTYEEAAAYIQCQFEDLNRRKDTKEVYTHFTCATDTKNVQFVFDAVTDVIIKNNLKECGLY
# Sa growth 42C = inhibitors of Staphylococcus aureus growth at 42 °C. S. aureus RN4220 growth, OD600, 20 h; active compounds read low. relative growth, % (test concentration not listed). 170,000 tested, 0.53% active. AID 720641;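 active = growth at 42 °C up to 50% and 20 or more points under that at 30 °C, or under 10% at both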;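 note: 300 nL library stock went into each well; scaled to the means of positive and negative controls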
# Sa growth 42C second temp = further read-out of Sa growth 42C, marked with its call; relative growth, %; measured here: growth at 30 °C;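 optical density after 20 h as mean of two plates; 100% = untreated growth and lower means inhibition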
# The depositor's hits bear a star; nt = not tested or not shown; & = joins results of further samples.
SMILES,HCMV UL50-53 inh,GIV Gai3 FP,Sa growth 42C,Sa growth 42C second temp
C/C=C/COC(=O)C1=C(C)NC(=O)NC1c1ccc(OCc2ccccc2)c(OC)c1 (stereo unspecified),-7,101,nt,nt
O=S(=O)(Cc1ccccc1)c1ccc(C(F)(F)F)cn1,-43,103,84,84
Cc1[nH]c2nc3ccccc3n2c(=O)c1CCC(C)C,13,104,103,98
N#Cc1ccccc1Cn1c(=O)n(-c2ccc(CC(=O)Nc3ccccc3)cc2)c(=O)c2sccc21,nt,108,70,92
COc1cccc(C2CC(c3ccc(C)cc3)=NN2C(=O)CCC(=O)O)c1OC (stereo unspecified),-24,105,nt,nt
CN(C(=O)c1ccc2nccnc2c1)C1CCCCC1,-32,95,78,86
COc1cc2cc(CN(Cc3ccc4c(c3)OCO4)C(=O)NCc3ccccc3)c(=O)[nH]c2cc1OC,-3,105,119,79
CC1CCCC(NC(=O)CSc2ncn[nH]2)C1C (stereo unspecified),-10,nt,109,90
NC(=O)Cn1cnc2nc(N3CCOCC3)sc2c1=O,-22,99,nt,nt
COc1cc(NC(=O)COc2ccc(F)cc2)nc(OC)n1,nt,102,76,75
CCOc1ccc(-n2c(Cc3cc(=O)[nH]c(=O)[nH]3)nnc2SCC(=O)Nc2ccccc2F)cc1,2,105,116,98
CCC1CCCCN1C(=O)c1cc(-c2ccc(F)cc2)no1 (stereo unspecified),-18,97,83,80
CC(O)Cn1c(N(C)Cc2ccccc2)nc2c1c(=O)n(C)c(=O)n2C (stereo unspecified),-22,97,88,78
CN(C)c1ccc(C2CC(c3cccs3)=NN2C(=O)CCC(=O)O)cc1 (stereo unspecified),-70,100,nt,nt
O=C(COC(=O)Cc1cccs1)NCc1ccc2c(c1)OCO2,10,nt,93,95
CCC1=Nc2cc(C(=O)N(C)Cc3ccccc3)ccc2Sc2ccc(C)cc21,nt,105,96,89
COc1ccc(C)cc1Nc1cc(C)nc(C)n1,-24&-18,105&100,105,85
c1ccc(Cn2c(NCc3cccs3)nc3ccccc32)cc1,-26,101,75,58
Cc1ccc(CN2C(=O)c3ccccc3Sc3ccc(C(=O)NCc4ccco4)cc32)cc1,nt,99,109,96
COc1ccc(C2c3c(n(C)c4ccccc34)C(=O)N2CC(=O)Nc2cccc(Cl)c2C)cc1 (stereo unspecified),nt,107,89,94
CC(C(=O)Nc1ccc(S(=O)(=O)N2CCOCC2)cc1)N1CCN(c2ccccn2)CC1 (stereo unspecified),-8,nt,110,105
COc1ccc(C(=O)NCC(c2ccc3c(c2)OCO3)N2CCN(c3ccccc3F)CC2)cc1 (stereo unspecified),nt,94,118,87
CCCn1cc(S(=O)(=O)c2ccccc2)c(=O)c2cc(F)c(N3CCCCC3)cc21,nt,105,86,67
O=C(O)c1cc(-c2ccc(C(F)(F)F)cc2)nc2n[nH]c(-c3ccccc3)c12,nt,108,120,98
CCOC(=O)c1c(C)[nH]c(CCC(=O)Nc2ccccc2C(F)(F)F)c1C,nt,101,85,89

# Whole records, looked up by structure. Values in the order: HCMV UL50-53 inh, GIV Gai3 FP, Sa growth 42C, Sa growth 42C second temp
# Shown for O=C(O)c1cc(-c2ccc(C(F)(F)F)cc2)nc2n[nH]c(-c3ccccc3)c12 : nt, 108, 120, 98
# Shown for COc1cccc(C2CC(c3ccc(C)cc3)=NN2C(=O)CCC(=O)O)c1OC (stereo unspecified) : -24, 105, nt, nt
# Shown for CC1CCCC(NC(=O)CSc2ncn[nH]2)C1C (stereo unspecified) : -10, nt, 109, 90
# Shown for CN(C(=O)c1ccc2nccnc2c1)C1CCCCC1 : -32, 95, 78, 86

# (continued)
SMILES,HCMV UL50-53 inh,GIV Gai3 FP,Sa growth 42C,Sa growth 42C second temp
Cc1ccc(-c2c(C)sc3ncn(CC(=O)O)c(=O)c23)cc1C,nt,94,198,96
CC1=C(N(C)c2ccccc2)C(=O)N(C2CCCCC2)C1,-9,nt,83,86
CCOC(=O)c1c(C)c(S(=O)(=O)NC2CCCC2)c(C)n1C,-15,102,nt,nt
Cc1ccc(Nc2c(-c3cc(Br)ccc3F)nc3cc(C)ccn23)cc1,59,106,101,93
Cc1noc(C)c1CC(=O)Nc1ccccc1N1CCCCC1,8,nt,86,96
CC(=O)N1N=C(c2c(-c3ccccc3)c3cc(Cl)ccc3n(C)c2=O)CC1c1ccco1 (stereo unspecified),-17,105,13,22
O=C(O)CCCN=C1NC2(CCCC2)Cc2ccccc21,-17,nt,80,91
CCOc1ccc(-n2c(=O)c3c(C)c(C)sc3n(Cc3ccc(C(C)(C)C)cc3)c2=O)cc1,1,100,90,99
COc1ccc(/C=C/c2nc(C#N)c(N3CCC(C)CC3)o2)cc1OC,10,98,84,80
O=C(NCCC(c1ccccc1)c1ccccc1)C1=COCCO1,-2,nt,118,84
COc1ccc(OC)c(C(=O)c2ccc(Cl)cc2)c1,-8,111,97,101
CCc1nnc2c(Nc3ccc(F)cc3)nc3ccccc3n12,-10,99,101,81
Cc1nn(C)c(C)c1CCN(C)C(=O)Nc1ccc(Cl)cc1,3,105,nt,nt
COc1cccc(CNCCCSc2nnnn2C)c1,-8,107,83,92
CCOC(=O)NC(=O)c1cn(Cc2ccco2)c(=O)[nH]c1=O,-32,105,88,85
COc1ccc(OCCOc2ccccc2F)cc1,10,103,84,102
O=C(O)C1CCC(C(=O)O)C1 (stereo unspecified),6,110,110,99
CCCN1CCC2(CC1)C1CN(CCC)CC=C1C(C#N)=C(N)C2(C#N)C#N (stereo unspecified),-47,88,97,91
CCOC(=O)N/N=C/c1ccc(Sc2ccc(Cl)cc2)o1,-42,101,106,88
CCCCN1CCS(=O)(=O)c2c(Cl)c(N3CCCC3)nc(Oc3ccc(F)cc3)c21,-1,107,nt,nt
COCCCn1c(=O)c2sccc2n2c(CCCC(=O)Nc3cccc(C(F)(F)F)c3)nnc12,nt,103,115,92
COc1ccc(C2C(C(N)=O)=C(C)Nc3nc(CCCO)nn32)cc1 (stereo unspecified),nt,103,111,84
CCOc1ccc(S(=O)(=O)c2cn(CC(=O)Nc3cccc(C)c3)c3ccc(F)cc3c2=O)cc1,-24,98,nt,nt
CC1CCN(S(=O)(=O)c2ccc3[nH]cc(C(=O)NCc4ccc(F)cc4)c(=O)c3c2)CC1,nt,105,117,97
CC(CN1c2ccccc2Sc2ccccc21)N(C)C (stereo unspecified),2&-33&-15&3&-14&-12,103&101,93&95,86&84

# (more compounds)
SMILES,HCMV UL50-53 inh,GIV Gai3 FP,Sa growth 42C,Sa growth 42C second temp
CCOC(=O)c1c(C)n(-c2ccc(OC)cc2)c2ccc(OCC(N)=O)cc12,-8,94,78,87
CCCNc1nc(NC2CCCCC2)nc(OC(C)C)n1,-8,nt,89,80
CCCn1c2ccccc2c2cnn(CC(=O)NCCc3ccc(OCC)cc3)c(=O)c21,nt,101,110,82
COc1ccccc1N1C(=O)N(CC(=O)C(C)(C)C)c2ccccc2S1(=O)=O,nt,101,76,91
O=C(CCc1ccc(-n2cnc3cccnc32)cc1)NCc1cccc(Cl)c1,-7,128,nt,nt
CCOC(=O)c1ccc(NC(=O)C2=C(C)Nc3nc(SCc4ccc(Cl)cc4)nn3C2c2ccc(OC)cc2)cc1 (stereo unspecified),-33,105,97,97
COC(=O)Cn1c(CN2CCN(c3ccc(OC)cc3)CC2)nc2c1c(=O)[nH]c(=O)n2C,-15,105,100,94
O=S(=O)(c1ccc2nsnc2c1)N1CCCCC1c1cccnc1 (stereo unspecified),-58,102,104,77
O=C(CCC(=O)c1ccc(F)cc1)c1ccc(F)cc1,-30,104,93,90
CC(C)(C)c1ccc(C(=O)NCC(c2cccs2)S(=O)(=O)c2cccs2)cc1 (stereo unspecified),nt,102,98,83
Cc1nn(C)c(C)c1CCNC(=O)Nc1cccc(Cl)c1C,nt,106,102,94
CN(C)Cn1c(O)c(N=NC(=O)c2ccccc2)c2ccccc21,-101,106,121,78
O=C(NCc1cccs1)C1CCCN(S(=O)(=O)c2cccnc2)C1 (stereo unspecified),nt,103,82,82
CC1(C)CC(=O)C2=C(C1)OC(N)=C(C#N)C2c1ccccc1OC(=O)c1ccccc1Cl (stereo unspecified),-24,102,nt,nt
O=C(CC1SC(Cc2ccccc2Cl)=NC1=O)Nc1ccccc1 (stereo unspecified),-19,98,81,81
O=C(N1CCCCC1)N1CCC(c2nc3ccccc3[nH]2)CC1,6,104,126,93
CCOc1ccc(NC(=O)c2cc(S(=O)(=O)NC3CCCCCC3)ccc2F)cc1,nt,104,113,79
Cc1ccc(Cl)cc1N1CCN(C(=O)c2cc3c(=O)[nH]c4ccccc4c3n2C)CC1,5,103,92,96
Cc1ccc(N2CCN(C(=O)c3cn(C)c4ccc(S(=O)(=O)N(C)C5CCCCC5)cc4c3=O)CC2C)cc1 (stereo unspecified),-35,103,103,92
CCN1CCN(C(c2cccc(OC)c2)c2c(O)cc(C)n(Cc3ccco3)c2=O)CC1 (stereo unspecified),nt,107,114,104
CN(C)c1ccc(/C=C2\CCC(=C3CCCC3)C2=O)cc1,-32,nt,78,86
O=C(O)c1c(F)cccc1I,-8,94,108,98
CC(C)=C1N=C(c2cccs2)OC1=O,-37,99,86,72
CCOC(=O)Cc1cn2ccsc2n1,-34,nt,110,82
C=CCn1c(CC(=O)Nc2cccc(OC)c2)nnc1SCC(=O)NC1CCCCC1,-8,105,98,93

# In another format: 2 of the compounds above
Structure	HCMV UL50-53 inh	GIV Gai3 FP	Sa growth 42C	Sa growth 42C second temp
Cc1ccc(N2CCN(C(=O)c3cn(C)c4ccc(S(=O)(=O)N(C)C5CCCCC5)cc4c3=O)CC2C)cc1 (stereo unspecified)	-35	103	103	92
CC1(C)CC(=O)C2=C(C1)OC(N)=C(C#N)C2c1ccccc1OC(=O)c1ccccc1Cl (stereo unspecified)	-24	102	nt	nt

# Continuation.
SMILES,HCMV UL50-53 inh,GIV Gai3 FP,Sa growth 42C,Sa growth 42C second temp
Cc1cccc(N(CC(=O)Nc2cccnc2)S(C)(=O)=O)c1C,-7,94,87,84
COc1ccccc1CNC(=O)c1cn(C)c2c(=O)n(-c3ccccc3)c(=O)[nH]c12,-2,104,nt,nt
CCOC(=O)c1c(NC(=O)Cc2ccc(Cl)cc2)sc(C(=O)Nc2cccc(OC)c2)c1C,-30,102,nt,nt
COc1ccc(C2=NN(c3nc(C)cs3)C(c3ccccc3)C2)cc1OC (stereo unspecified),-60,103,nt,nt
COc1cccc(-c2cc(C(=O)Nc3ccc(C)cc3)[nH]n2)c1,nt,102,91,96
CCN(CC)CCNC(=O)Cn1cnc2onc(C)c2c1=O,-4,102,nt,nt
Cc1nc(-c2ncc(-c3ccccc3)o2)c(C(F)(F)F)o1,0,106,129,78
CN1C(=O)c2ccccc2Sc2ccc(NC(=O)Cc3c(F)cccc3Cl)cc21,nt,106,131,69
Cc1cccn2c(=O)c(/C=C3\SC(=S)N(Cc4ccccc4)C3=O)c(N3CCC(C)CC3)nc12,-14,115,nt,nt
O=C(Nc1ccc(Cl)c(Cl)c1)OCc1ccco1,-9,105,44,47
Cc1ccc(S(=O)(=O)c2ccc(C(=O)N3CCOCC3)cn2)cc1C,-14,98,nt,nt
Cc1ccc(Cl)cc1N1CCN(CCCNC(=O)c2nnc(Cc3ccc(F)cc3Cl)o2)CC1,-16,92,nt,nt
O=c1oc(-c2ccco2)nc2ccccc12,-4,99,94,101
COc1cccc(C(=O)NC(=NCc2ccncc2)Nc2ccc3c(c2)OCCO3)c1,-32,100,nt,nt
CC1C(=O)C(C)C(c2cccs2)NC1c1cccs1 (stereo unspecified),1,99,104,92
CCOc1ccccc1-n1ccnc(NCc2ccc(F)cc2)c1=O,nt,102,95,93
C=CCn1c(SCC(=O)Nc2cccc(OC)c2)nnc1C(C)NC(=O)c1ccccc1 (stereo unspecified),5,98,93,96
c1ccc(CSc2nnc(SCc3ccccn3)s2)nc1,-11,nt,99,88
CCOC(=O)c1ccc(-n2c(C)nc3c(cnn3-c3ccc(Cl)cc3)c2=O)cc1,-11,102,91,96
N#CC1(c2ccccc2)CCc2c(sc3ncnc(N4CCOCC4)c23)C1 (stereo unspecified),-8,100,nt,nt
CCOC(=O)C1=C(C)N=c2s/c(=C\c3ccc(OC)cc3OC)c(=O)n2C1c1ccc(OC)c(OC)c1 (stereo unspecified),-18,103,nt,nt
Cc1c(C(=O)N(C)Cc2ccccc2)sc2nc3n(c(=O)c12)CCCC3,-6,109,84,91
O=C(OCC(=O)c1cc2c3c(c1)CC(=O)N3CCC2)C1=COCCO1,-18,nt,99,84
CSc1ncnc2c1cnn2-c1ccccc1,-10,106,102,88
CCCSC(=S)c1c(C)[nH]n(-c2ccc(C)cc2)c1=O,11,105,123,86
COc1ccc(CCN(C)C2CCNCC2)cc1OC,-24,104,89,85
CS(=O)(=O)c1ccc2nc(NC(=O)C3CCCC3)sc2c1,4,nt,108,89
CCC1C2=C(CC(C)(C)CC2=O)Nc2c1c(C)nn2-c1ccccc1 (stereo unspecified),38,100,92,85
Cc1ccc(C)c(Cn2c(=O)n(CCCC(=O)NCc3ccccc3Cl)c(=O)c3ccccc32)c1,nt,100,110,88
C=CCSc1ncnc2c1sc1nc(N3CCOCC3)c3c(c12)CCCC3,nt,102,107,97

# A few values from the entries so far.
# CCOC(=O)c1c(NC(=O)Cc2ccc(Cl)cc2)sc(C(=O)Nc2cccc(OC)c2)c1C in HCMV UL50-53 inh reads -30
# COc1ccc(CCN(C)C2CCNCC2)cc1OC in Sa growth 42C reads 89

# Compound activity from PubChem BioAssay.

# No enrichment for hits. About 0.83% of those tested had a hit in this group.
